Assay outcomes from PubChem.
m5-HT2A agonist – agonists of mouse serotonin 5-HT2A receptor (HTR2A); hit rate 0.66% among 360,000; P35363; activation, % at 7.6 µM; CHO-K1 mHTR2A beta-arrestin complementation, luminescence; percent of 30 µM serotonin response; AID 624169;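 active = activation above a run cutoff, the mean activation of all tested compounds plus 3 SD, cut at about 14% in these data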;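 also: 0% = plate median of compound wells and 100% = 30 µM serotonin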
NR2E3 ag-1 – NR2E3 (human) agonism; GST-NR2E3/biotin-RetCOR TR-FRET, 1536-well; inhibition of corepressor binding, % at 4.78 µM; hit rate 0.12% among 320,000; AID 2300;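 active = percent inhibition above the cutoff of mean plus 3 SD of all tested compounds, set per screening campaign, cut at about 20% in these data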;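 also: 0% = DMSO wells and 100% = biotin wells as full block of FRET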
Target sequence (Q9Y5X4 whole entry, looked up): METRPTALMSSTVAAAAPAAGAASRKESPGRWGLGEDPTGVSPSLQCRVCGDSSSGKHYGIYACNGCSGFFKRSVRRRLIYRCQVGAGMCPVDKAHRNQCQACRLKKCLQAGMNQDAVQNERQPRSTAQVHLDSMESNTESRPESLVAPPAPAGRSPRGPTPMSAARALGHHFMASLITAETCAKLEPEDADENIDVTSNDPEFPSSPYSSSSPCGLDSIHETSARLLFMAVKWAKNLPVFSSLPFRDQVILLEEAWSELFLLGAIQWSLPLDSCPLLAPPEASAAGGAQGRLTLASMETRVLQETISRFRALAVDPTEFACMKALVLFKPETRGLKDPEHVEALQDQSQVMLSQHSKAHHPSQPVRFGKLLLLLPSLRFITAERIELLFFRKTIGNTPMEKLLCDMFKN
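Assay system: NR2E3–RetCOR corepressor complex. Quantity: 1.35 nM GST-NR2E3. Buffer or medium: pH 7.5 Tris-based buffer. Reagent: biotinylated RetCOR corepressor at 7 nM final. Schedule: 5 h at 4 °C. Detection: TR-FRET, emission read at 617 and 671 nm. Replicates: one well per compound, singlicate testing.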
hiPSC survival – increases survival of single human iPS cells; hit rate 0.044% among 360,000; survival enhancement, % at 20 µM; hiPSC single-cell survival, ATPlite luminescence; 100% = ROCK inhibitor wells, 0% = DMSO; in the data active = survival enhancement above about 18%;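 also: cells exposed to compounds for 16 hours before the ATP read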
NR2E3 ag-2 – activates human NR2E3 receptor. Q9Y5X4. hit rate 0.35% among 360,000. CHO-S Gal4-NCOR/VP16-NR2E3 two-hybrid, luciferase. inhibition of corepressor binding, % at 3.98 µM. AID 602229;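 active = inhibition above the mean of all tested compounds plus 3 SD, cut at about 70% in these data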;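 also: 0% = DMSO with NR2E3 transfected cells and 100% = cells lacking NR2E3 construct; higher means lower luciferase signal from less NR2E3 corepressor binding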
Cardio protect – modulators protecting cardiomyocytes from myocardial damage; AID 588492; protection from H2O2 cell death, % at 20 µM; H9c2 cardiomyocytes, H2O2 injury protection, ATPLite, 2 h; hit rate 0.63% among 360,000;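 active = compounds giving at least 50% protection of heart cells from peroxide-induced death in the single-dose screen, raw or plate-pattern-corrected value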;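 also: 0% = DMSO wells with peroxide and 100% = DMSO wells without peroxide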
PDI turbidity – blocks human protein disulfide isomerase activity; P07237; PDI insulin aggregation turbidity, A650, 90 min; inhibition, % at 10 µM; hit rate 0.052% among 350,000; AID 588391;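 active = mean inhibition across replicates of 30% or more, whatever share of single replicates reach that level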;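 also: absorbance from insulin aggregation driven by PDI reduction with DTT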
Active calls of the source: *; & = joins results of further samples. Only part of the results is shown; the hit share may differ from the screen's.

How did CCCCNc1c(-c2ccc(SC3CCCCC3)cc2)nc2cnccn12 do in these assays?
m5-HT2A agonist: 11&-2; hiPSC survival: -3.4&-1.1; NR2E3 ag-2: -38&-31; Cardio protect: -14; PDI turbidity: 1

Results for C#Cc1cccc(N2C(=O)C3C4C=CC(C3C2=O)C2C(=O)N(c3cccc(C#C)c3)C(=O)C42)c1 (stereo unspecified) ?
m5-HT2A agonist: 0; hiPSC survival: 0.8; NR2E3 ag-2: -24; Cardio protect: 4; PDI turbidity: -17

What do the screens show for `C[C@H](NC(=O)c1cc2c(cn1)[nH]c1ccccc12)C(=O)O`?
m5-HT2A agonist: 6; hiPSC survival: -0.2; NR2E3 ag-2: -31; Cardio protect: -7; PDI turbidity: 19

How did CCCCOC(=O)CNc1nnc(SCC(=O)OCC)[nH]c1=O do in these assays?
m5-HT2A agonist: -4; NR2E3 ag-1: -3; hiPSC survival: -3.6; NR2E3 ag-2: -18; Cardio protect: 27; PDI turbidity: 7

Results for NNC(=O)c1nc(-c2ccccc2)cc(-c2ccccc2)n1 ?
m5-HT2A agonist: -1; hiPSC survival: 0.1; NR2E3 ag-2: -16; Cardio protect: 14; PDI turbidity: -10

How did O=C(Cn1c(C(=O)c2ccccc2)nc2ccccc21)c1ccc(Cl)cc1 do in these assays?
m5-HT2A agonist: 1; hiPSC survival: 5.4; NR2E3 ag-2: -20; Cardio protect: -2; PDI turbidity: 12

What do the screens show for `O=[N+]([O-])c1ccc(S(=O)Cc2ccccc2)c([N+](=O)[O-])c1` (stereo unspecified)?
m5-HT2A agonist: -8; hiPSC survival: -5.1; NR2E3 ag-2: 6; Cardio protect: -21; PDI turbidity: 7

What do the screens show for `O=C1NC[C@H](c2ccccc2)OC(=O)[C@@H](Cc2ccc(F)cc2)CC/C=C/C[C@@H]1CC(=O)N(CCO)Cc1ccccc1`?
m5-HT2A agonist: -24; hiPSC survival: 9.3; NR2E3 ag-2: 10; Cardio protect: 28; PDI turbidity: 4

What do the screens show for `O=C1NN(c2ccccc2)C(=O)/C1=C/c1ccc(Sc2ccc(Cl)cc2)o1`?
m5-HT2A agonist: 12; NR2E3 ag-1: 2; hiPSC survival: 0.3; NR2E3 ag-2: 11; Cardio protect: -15; PDI turbidity: -7

What do the screens show for `C=C(CN(C)C)C(=O)c1ccc2c(c1)OCO2`?
m5-HT2A agonist: -2; hiPSC survival: -1.9; NR2E3 ag-2: 41; Cardio protect: -15; PDI turbidity: 7

Two compounds drawn at random from the list so far:
What do the screens show for `C=C(CN(C)C)C(=O)c1ccc2c(c1)OCO2`?
m5-HT2A agonist: -2; hiPSC survival: -1.9; NR2E3 ag-2: 41; Cardio protect: -15; PDI turbidity: 7

What do the screens show for `O=[N+]([O-])c1ccc(S(=O)Cc2ccccc2)c([N+](=O)[O-])c1` (stereo unspecified)?
m5-HT2A agonist: -8; hiPSC survival: -5.1; NR2E3 ag-2: 6; Cardio protect: -21; PDI turbidity: 7

Of the compounds above, 2 contain a Cl atom:
How did O=C(Cn1c(C(=O)c2ccccc2)nc2ccccc21)c1ccc(Cl)cc1 do in these assays?
m5-HT2A agonist: 1; hiPSC survival: 5.4; NR2E3 ag-2: -20; Cardio protect: -2; PDI turbidity: 12

What do the screens show for `O=C1NN(c2ccccc2)C(=O)/C1=C/c1ccc(Sc2ccc(Cl)cc2)o1`?
m5-HT2A agonist: 12; NR2E3 ag-1: 2; hiPSC survival: 0.3; NR2E3 ag-2: 11; Cardio protect: -15; PDI turbidity: -7

Structures shown so far that contain a carbonyl joined to an NH by a bond outside any ring:
What do the screens show for `C[C@H](NC(=O)c1cc2c(cn1)[nH]c1ccccc12)C(=O)O`?
m5-HT2A agonist: 6; hiPSC survival: -0.2; NR2E3 ag-2: -31; Cardio protect: -7; PDI turbidity: 19

Results for NNC(=O)c1nc(-c2ccccc2)cc(-c2ccccc2)n1 ?
m5-HT2A agonist: -1; hiPSC survival: 0.1; NR2E3 ag-2: -16; Cardio protect: 14; PDI turbidity: -10
